High-throughput results from PubChem BioAssay.
TRPV1 potentiator: enhances activation of the human vanilloid receptor TRPV1 | potentiation, % at 8.33 µM | TRPV1-expressing cells, Fluo-8 calcium influx, capsaicin EC20 potentiation; host cell line not named in the record; control for the full effect not named in the record | AID 540277 | 320,000 tested, 0.02% active | Q8NER1; active means potentiation above 80%; inconclusive means 30% to 80%; inactive means below 30%; note: 0% is about no effect
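Cells expressing TRPV1 were dye-loaded with Fluo-8 and read kinetically: 10 s baseline, 3 min after compound (agonist portion), then 2 min after EC20 capsaicin (allosteric enhancer portion). Calcium-bound dye fluorescence at 480/520 nm.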
CtBP-E1A inh: blocks the CtBP interaction with E1A; AlphaScreen GST-E1A/His-CtBP binding, 1536-well; stronger effect = lower value; control for the full effect not named in the record; AID 651724; 340,000 tested, 0.49% active; activity change, % (test concentration not listed); in the data active means activity change below about -65%; inconclusive means about -30% to -65%; inactive means above about -30%; note: % is set by controls: 0 for no effect and ±100 for the full control effect; compound concentration not given in the record
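AlphaScreen with 125 nM GST-E1A and 125 nM His-CtBP (5X stocks) in Tris pH 8.0, 300 mM NaCl, BSA, Tween 20, TCEP. Compounds preincubated 2 h at 37 deg C, then glutathione donor/nickel acceptor beads added for 1 h at 37 deg C in dark.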
D2 potentiator: human D2 receptor positive allosteric modulation; potentiation, % (no concentration beside the values); DiscoveRx D2 beta-arrestin cells, luminescence, 90 min; 100% = 57 uM dopamine signal; AID 624464; 360,000 tested, 0.23% active; active = potentiation of 50% or more; inconclusive = 30% to 50%; inactive = 30% or less;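 note: compound concentration not given in the record; tested on top of an EC20 dose of dopamine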
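D2 cells co-treated with compound plus 50 nM dopamine (EC20) for 90 min at 37 deg C to detect potentiation. Beta-arrestin recruitment was read as enzyme-fragment luminescence after 1 h at ambient temperature. Full response was set by 57 uM dopamine.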
D2 ag: human D2 receptor agonism in beta-arrestin assay | P14416 | DiscoveRx PathHunter D2 beta-arrestin, luminescence, 90 min; 100% = 57 uM dopamine signal | activation, % (test concentration not listed) | 360,000 tested, 0.084% active; in the data active = activation above about 40%; inconclusive = about 15% to 40%; inactive = below about 15%; note: compound concentration not given in the record; the text of the record calls up to 30% inactive
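Agonist mode: compounds alone added to overnight-plated D2 PathHunter cells for 90 min at 37 C, with 57 uM final dopamine (EC100) defining full response. Beta-arrestin recruitment detected by chemiluminescent reagent, read after 1 h at ambient temperature.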
Six1-Eya2 blk: blocks human Six1 binding to Eya2. Q15475+O00167. AlphaScreen GST-Six1/His-Eya2 binding, biochemical; stronger effect = lower value; control for the full effect not named in the record. activity change, % (no concentration beside the values). 360,000 tested, 0.56% active; in the data active = activity change below about -65%; inconclusive = about -30% to -65%; inactive = above about -30%; note: % is set by controls: 0 for no effect and ±100 for the full control effect; compound concentration not given in the record
Target sequence (O00167 whole entry, looked up): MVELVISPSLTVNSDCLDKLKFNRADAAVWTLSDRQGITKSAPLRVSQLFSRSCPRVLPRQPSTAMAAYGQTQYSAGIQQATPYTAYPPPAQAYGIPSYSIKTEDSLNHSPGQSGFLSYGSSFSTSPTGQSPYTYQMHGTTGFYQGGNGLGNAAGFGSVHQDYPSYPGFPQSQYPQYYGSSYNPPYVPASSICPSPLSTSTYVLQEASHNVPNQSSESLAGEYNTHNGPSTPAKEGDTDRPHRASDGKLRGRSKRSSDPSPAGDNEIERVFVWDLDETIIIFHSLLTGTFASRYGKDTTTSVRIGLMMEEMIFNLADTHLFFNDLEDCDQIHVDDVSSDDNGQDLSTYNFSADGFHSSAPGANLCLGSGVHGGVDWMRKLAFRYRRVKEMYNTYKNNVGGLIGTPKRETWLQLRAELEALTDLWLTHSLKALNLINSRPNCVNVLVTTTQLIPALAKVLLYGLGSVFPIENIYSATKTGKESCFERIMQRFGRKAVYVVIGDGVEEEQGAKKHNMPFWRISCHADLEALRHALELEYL
Target sequence (Q15475 whole entry, looked up): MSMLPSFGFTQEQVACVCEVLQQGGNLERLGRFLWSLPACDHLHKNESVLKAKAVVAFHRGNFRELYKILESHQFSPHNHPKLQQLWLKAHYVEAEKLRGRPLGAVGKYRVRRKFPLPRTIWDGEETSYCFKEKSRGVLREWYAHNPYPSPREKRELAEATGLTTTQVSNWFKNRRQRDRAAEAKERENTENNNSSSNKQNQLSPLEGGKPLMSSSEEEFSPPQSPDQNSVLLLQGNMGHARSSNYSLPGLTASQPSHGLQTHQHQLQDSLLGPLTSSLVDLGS
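AlphaScreen with GST-Six1 and His-Eya2 (5X mix: 250 nM and 500 nM), glutathione donor and nickel acceptor beads; buffer 50 mM Tris pH 8.0, 300 mM NaCl, 1 mM TCEP; 1 h at 37 C in the dark.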
PINK1 modulator: modulators of PINK1 expression. PINK1 immunofluorescence, high-content cytometry, 24 h. Potency, µM (highest dose often 76.6 µM), inactives show at the highest dose activation (PINK1 increase), hits mostly activators. 410,000 tested, 0.2% active. AID 624263; active = well fitted activation curve with a large enough effect; inconclusive = small, poorly fitted or top-dose-only effect; inactive = flat fitted curve, though single readings scatter; cell line not stated here;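 note: potency is the fitted concentration of half-maximal effect; % of control where 0% means no effect; nearly all actives have a fitted effect of over 65% in size; a mitochondrial uncoupler was the plate control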
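Fluorescence from anti-PINK1 antibody, together with nuclear and cell stains, was scanned on a laser-scanning cytometer. Before staining, stable-line cells were incubated 24 hours with compounds at 5 concentrations; primary antibody 12 h at 10 degrees C.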
Sfp inh: blocks B. subtilis Sfp PPTase activity | Potency, µM, without a hit: max response, negative = inhibition, most hits filed as inhibitors | 310,000 tested, 3.5% active | Biochemical Sfp PPTase activity, qHTS | AID 1490; active = well fitted inhibition curve with a large enough effect; inconclusive = small, poorly fitted or top-dose-only effect, or another doubt; inactive = no such curve, though single readings can be large or run the other way;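 note: the enzyme is Sfp with the accession as filed and its product quenches rhodamine fluorescence; potency is the fitted concentration of half-maximal effect; 0% = enzyme reaction without inhibitor and -100% = no enzyme wells; top concentration of the series not given in the record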
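With Hepes-Na pH 7.6 buffer containing 10 mM MgCl2, Sfp (15 nM) modified BHQ-2-YbbR (12.5 uM) using rhodamine-CoA (5 uM). Two reads 30 minutes apart at 525/598 nm yielded each well's rate.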
* = called active by the depositor; ? = inconclusive; · = not tested or not shown; [ ] = another dose, or the depositor's remark.

SMILES | TRPV1 potentiator | CtBP-E1A inh | D2 potentiator | D2 ag | Six1-Eya2 blk | PINK1 modulator | Sfp inh
CS(=O)(=O)N(CC(=O)N1CCN(Cc2ccccc2)CC1)C1CCCCC1 | 0 | -5 | -7 | -3.1 | -7 | 3.5% | -6%
CCOc1ccc(Oc2ccccc2NC(=O)CCNC(C)=O)cc1 | -21 | 1 | 2 | 1.7 | 0 | -1.2% | 3%
Cc1cccc(NC(=O)CS(=O)(=O)c2cn(C)c3ccccc23)c1 | ? | -9 | -1 | 8.8 | 9 | -0.6% | 18%
CC1=NOC(=O)/C1=C/c1ccc(O)cc1 | -3 | 10 | -3 | -3.7 | -6 | 11% | 40µM*
CN(C)C(=O)c1ccc2c3c(cccc13)CC2 | 1 | -4 | -8 | -8.0 | 12 | 0.5% | 12%
CC(O)(c1cccc(F)c1)c1nc(-c2cccc3cccnc23)cs1 (stereo not drawn) | · | 1 | 1 | -5.9 | 3 | 8.2% | ·
CC(C)[C@H](NC(=O)OCc1ccccc1)C(=O)OCC(=O)NC1CCCCC1 | -5 | 0 | -8 | -1.9 | -2 | 0.7% | 1%
COc1cc(/C=N/n2c(-c3n[nH]c4c3CCC4)n[nH]c2=S)ccc1O | 6 | 1 | -11 | -0.5 | -1 | -0.5% | -20%
O=C(COC(=O)c1cc[n+]([O-])cc1)Nc1cccc(F)c1 | · | · | -4 | 2.6 | -5 | -0.1% | ·
Cc1cc(CNCc2cn(C)nc2-c2ccc(Oc3ccccc3)cc2)on1 | 19 | 0 | -4 | -3.7 | 7 | 0.8% | -5%
CC(C)CCNC(=O)c1onc(CSc2ccc(F)cc2)c1C(=O)NCCC(C)C | 2 | 18 | -3 | -3.3 | 22 | 8.0% | ·
O=C(COC(=O)Cc1ccc(Cl)cc1Cl)Nc1ccc(OC(F)F)cc1 | 7 | 22 | 1 | -1.9 | 14 | -0.6% | -6%
COc1ccc(C(=O)NCCCc2nc3ccccc3n2Cc2ccccc2C)cc1OC | -20 | -2 | -6 | -0.9 | -4 | 4.5% | 5%
COc1ccccc1NC(=O)C1=C(C)Nc2ncnn2C1c1cccs1 (stereo not drawn) | ? | 2 | 20 | 0.3 | -2 | 3.2% | 11%
COc1ccc(NC(=O)CN2CCc3ccccc3C2)cc1S(=O)(=O)N1CCOCC1 | 14 | 4 | -7 | 0.8 | 0 | 2.7% | 8%

Nine compounds out of the list, ordered by heavy-atom count, lowest first.
SMILES | TRPV1 potentiator | CtBP-E1A inh | D2 potentiator | D2 ag | Six1-Eya2 blk | PINK1 modulator | Sfp inh
CC1=NOC(=O)/C1=C/c1ccc(O)cc1 | -3 | 10 | -3 | -3.7 | -6 | 11% | 40µM*
CN(C)C(=O)c1ccc2c3c(cccc13)CC2 | 1 | -4 | -8 | -8.0 | 12 | 0.5% | 12%
O=C(COC(=O)c1cc[n+]([O-])cc1)Nc1cccc(F)c1 | · | · | -4 | 2.6 | -5 | -0.1% | ·
Cc1cccc(NC(=O)CS(=O)(=O)c2cn(C)c3ccccc23)c1 | ? | -9 | -1 | 8.8 | 9 | -0.6% | 18%
COc1cc(/C=N/n2c(-c3n[nH]c4c3CCC4)n[nH]c2=S)ccc1O | 6 | 1 | -11 | -0.5 | -1 | -0.5% | -20%
COc1ccccc1NC(=O)C1=C(C)Nc2ncnn2C1c1cccs1 (stereo not drawn) | ? | 2 | 20 | 0.3 | -2 | 3.2% | 11%
CC(C)[C@H](NC(=O)OCc1ccccc1)C(=O)OCC(=O)NC1CCCCC1 | -5 | 0 | -8 | -1.9 | -2 | 0.7% | 1%
CC(C)CCNC(=O)c1onc(CSc2ccc(F)cc2)c1C(=O)NCCC(C)C | 2 | 18 | -3 | -3.3 | 22 | 8.0% | ·
COc1ccc(NC(=O)CN2CCc3ccccc3C2)cc1S(=O)(=O)N1CCOCC1 | 14 | 4 | -7 | 0.8 | 0 | 2.7% | 8%

The main list resumes, starting two compounds before the break.
SMILES | TRPV1 potentiator | CtBP-E1A inh | D2 potentiator | D2 ag | Six1-Eya2 blk | PINK1 modulator | Sfp inh
COc1ccccc1NC(=O)C1=C(C)Nc2ncnn2C1c1cccs1 (stereo not drawn) | ? | 2 | 20 | 0.3 | -2 | 3.2% | 11%
COc1ccc(NC(=O)CN2CCc3ccccc3C2)cc1S(=O)(=O)N1CCOCC1 | 14 | 4 | -7 | 0.8 | 0 | 2.7% | 8%
COC(=O)CN(c1ccccc1F)S(=O)(=O)c1ccc(C)cc1 | 11 | 2 | -7 | -3.4 | 12 | 0.4% | 0%
Cn1c(C(=O)NCCCN2CCN(c3cccc(Cl)c3)CC2)cc2c(=O)n(C)c3ccccc3c21 | -18 | -9 | -8 | 0.9 | -14 | 1.6% | -11%
CC1(c2ccc(Cl)cc2Cl)NC(=O)N(CC(=O)N2CCN(C(=O)c3ccco3)CC2)C1=O (stereo not drawn) | 6 | 6 | 10 | 1.6 | 2 | -1.1% | ·
COc1ccc(/C(C)=N\O)cc1OC | 28 | 4 | -6 | -0.6 | -5 | 0.3% | 11%
O=C(OCC(=O)N1CCc2ccccc2C1)c1ccc(F)cc1Cl | · | -8 | -30 | -2.3 | 17 | 1.3% | ·
COC(=O)c1cc(OC)cc(O)c1C(=O)c1c(O)cc(C)cc1O | -7 | 3 | 3 | 2.8 | -1 | 2.1% | -3%
CCc1ccc(C2C(C#N)=C(N)SC(N)=C2C#N)s1 | 2 | -18 | 1 | -1.0 | -6 | 5.4% | -10%
CC(C)c1ccc(NC(=O)CN2C(=O)NC3(CCCC3)C2=O)cc1 | -10 | 7 | -5 | -1.9 | -1 | -0.7% | 12%
Fc1ccccc1-c1n[nH]c(=S)n1CC1CCCO1 (stereo not drawn) | 3 | -6 | -10 | 2.2 | -3 | 0.3% | 1%
CC/C(C)=N/Nc1nc2sc3c(c2c(=O)[nH]1)CC(C)(C)OC3 | -1 | -11 | -8 | 2.1 | 2 | 2.8% | 40µM*
CC1CN(S(=O)(=O)c2ccc(C(=O)NN3CCN(C)CC3)cc2)CC(C)O1 (stereo not drawn) | -5 | -10 | -3 | -2.1 | 1 | 3.2% | 11%
Fc1ccc(N2CCN(c3ncnc4nc[nH]c34)CC2)cc1 | -36 | 22 | 5 | 6.2 | 13 | 3.9% | 0%
C=CCN(C(=O)c1csnn1)C(C(=O)NC1CCCC1)c1c(F)cccc1Cl (stereo not drawn) | 21 | -12 | -11 | -1.3 | 16 | -0.1% | -8%
CC(NC(=O)Nc1ccc(F)cc1F)c1ccncc1 (stereo not drawn) | -6 | 5 | -14 | -1.8 | -1 | · | 5%
Cc1cc(C)n(C(C)CC(=O)Nc2ccc(-c3ccno3)cc2)n1 (stereo not drawn) | 1 | -18 | 1 | -3.4 | 0 | 0.0% | 2%
Cc1ccnc(NC(=O)Cc2c(F)cccc2Cl)c1 | -4 | -13 | -28 | 1.4 | -4 | 0.3% | 24%
CC(C)C(=O)N(Cc1ccc(F)cc1)Cc1nc2ccccc2c(=O)[nH]1 | -2 | 1 | -7 | -1.5 | 7 | 0.8% | 16%
COCCNC(=S)Nc1cc(S(=O)(=O)N2CCOCC2)ccc1N1CCCCC1 | 1 | -9 | -5 | -2.9 | -12 | -0.2% | 1µM*
CN(C)c1ccc(NC(=O)COC(=O)CNC(=O)c2cccs2)cc1 | -4 | · | -1 | -1.7 | -18 | 0.9% | ·
CCCS(=O)(=O)NC(=O)C1(C)CCN(C(=O)c2ccc(C(F)(F)F)nc2C)C1 (stereo not drawn) | · | 8 | -6 | -5.1 | 0 | 1.2% | ·
COc1ccc(NC(=O)C2CC(c3cc(OC)c(OC)c(OC)c3)=NO2)cc1OC (stereo not drawn) | -5 | -6 | -3 | 0.7 | -11 | -1.9%[38.3 µM] | -3%
CCOC(=O)c1nnc(-c2ccccc2)[nH]c1=O | 8 | 15 | 0 | 0.2 | 2 | -0.3% | 18%
CCCCC(c1nnnn1CCOC)N1CCN(c2cccc(OC)c2)CC1 (stereo not drawn) | -10 | -9 | 5 | -0.8 | -1 | 1.9% | 8%
CC1Cc2ccccc2N1Cc1cccc([N+](=O)[O-])c1 (stereo not drawn) | 16 | ? | 0 | -2.0 | ? | 5.0% | -9%
CCOc1ccccc1N1CCN(C(=S)NCc2ccc(Cl)cc2)CC1 | 3 | 3 | -7 | 3.7 | -3 | 8.3% | 22%
Cc1cc(CNCc2c(C(=O)N3CCCCCCC3)nc3ccc(Cl)cn23)nn1C | -9 | 6 | -8 | -0.2 | -3 | -1.4% | 27%
O=C(O)C1CCCCC1C(=O)Nc1ccccn1 (stereo not drawn) | -22 | 3 | 2 | -2.9 | -4 | 2.6% | 19%
O=C(O)c1cc(O)ccc1-c1ccc(O)cc1 | 7 | -1 | -8 | -0.6 | -1 | 1.3% | 12%
CC1CCN(CC(O)COCCC23CC4CC(CC(C4)C2)C3)CC1 (stereo not drawn) | 16 | 1 | -17 | -2.2 | -1 | 0.3%[38.3 µM] | -2%
CCC(=O)NCCc1c[nH]c2ccccc12 | 2 | -1 | 6 | 2.0 | 7 | -0.3% | 14%
CCOC(=O)c1[nH]c2ccc(OC)cc2c1NC(=O)CN1CCc2ccccc2C1 | -25 | -24 | -21 | 1.9 | -23 | -1.2% | 3%
COC(=O)[C@]1(C)N[C@H](CN(C)S(=O)(=O)c2ccc(F)cc2)[C@@H]2C(=O)N(Cc3ccccc3)C(=O)[C@@H]21 | · | 4 | -2 | -0.2 | 6 | -0.3% | ·
Clc1ccc(Cl)c(OCc2cc(-c3ccccc3Cl)on2)c1 | 5 | 4 | -9 | -1.5 | -17 | 4.5% | 12%
CCOc1ccc(CC(=O)NCc2cn3c(C)csc3n2)cc1 | 12 | 2 | -1 | -2.8 | 2 | 1.0% | 11%
COc1ccc(C2/C=C\CN(C(=O)C3CCCC3)[C@H](Cc3ccccc3)C(=O)N2Cc2ccc(F)cc2)cc1 (stereo partly drawn) | 3 | · | -24 | -4.9 | -16 | -0.5% | 3%
CCOc1nc(OCC)nc(N2CCC(C)CC2)n1 | -12 | 13 | -5 | 0.7 | 16 | 2.8% | 18%
C/C(N)=C(/C#N)C(=O)COC(=O)CNS(=O)(=O)c1ccc(C)cc1 | 9 | -1 | 3 | 1.9 | 2 | 0.7% | 2%
COc1ccc(CC(=O)NNS(=O)(=O)c2cccc([N+](=O)[O-])c2)cc1OC | -5 | 6 | -2 | -1.0 | -3 | -2.1% | 20%
CC(=O)c1c(C)n(-c2ccccc2)c2ccc(O)cc12 | 0 | -1 | 2 | -1.6 | -3 | -1.1% | 13%
